# Assay outcomes: PubChem, National Center for Advancing Translational Sciences (NCATS)
# D2 ag: human D2 receptor agonism in beta-arrestin assay; 0.084% of 360,000 active; activation, % (no concentration beside the values); DiscoveRx PathHunter D2 beta-arrestin, luminescence, 90 min; 100% = 57 uM dopamine signal; P14416; in the data active = activation above about 40%; inconclusive = about 15% to 40%; inactive = below about 15%; also: compound concentration not given in the record; the text of the record calls up to 30% inactive
#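 DiscoveRx PathHunter D2 beta-arrestin cells (2,100/well) attached overnight, then compound-stimulated 90 min at 37 C in HBSS/10 mM HEPES/0.1% Tween-20 buffer; beta-galactosidase complementation read by luminescence after 1 h at ambient temperature. Dopamine 57 uM final (EC100) as control.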
# Six1-Eya2 inh: inhibitors of human Six1/Eya2 interaction | activity change, % (no concentration beside the values) | AlphaScreen GST-Six1/His-Eya2 binding, biochemical; active compounds read low; control for the full effect not named in the record | AID 651725 | 0.56% of 360,000 active; in the data active = activity change below about -65%; inconclusive = about -30% to -65%; inactive = above about -30%; also: % is scaled to controls: 0 for no effect and ±100 for the full control effect
# Target sequence (O00167 whole entry, looked up): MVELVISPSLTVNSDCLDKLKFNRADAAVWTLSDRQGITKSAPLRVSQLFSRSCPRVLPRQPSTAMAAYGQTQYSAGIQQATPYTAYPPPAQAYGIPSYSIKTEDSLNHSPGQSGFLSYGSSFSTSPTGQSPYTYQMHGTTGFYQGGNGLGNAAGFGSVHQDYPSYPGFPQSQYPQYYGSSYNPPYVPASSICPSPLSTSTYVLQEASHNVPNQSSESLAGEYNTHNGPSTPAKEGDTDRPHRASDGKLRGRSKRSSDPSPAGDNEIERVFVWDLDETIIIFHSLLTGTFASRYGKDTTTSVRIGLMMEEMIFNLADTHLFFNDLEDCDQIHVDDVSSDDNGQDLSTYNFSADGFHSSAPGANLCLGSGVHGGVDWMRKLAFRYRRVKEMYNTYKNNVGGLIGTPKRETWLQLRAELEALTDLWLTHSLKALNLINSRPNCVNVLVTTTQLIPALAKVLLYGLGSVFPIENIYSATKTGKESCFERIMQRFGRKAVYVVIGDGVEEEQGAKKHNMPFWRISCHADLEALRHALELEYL
# Target sequence (Q15475 whole entry, looked up): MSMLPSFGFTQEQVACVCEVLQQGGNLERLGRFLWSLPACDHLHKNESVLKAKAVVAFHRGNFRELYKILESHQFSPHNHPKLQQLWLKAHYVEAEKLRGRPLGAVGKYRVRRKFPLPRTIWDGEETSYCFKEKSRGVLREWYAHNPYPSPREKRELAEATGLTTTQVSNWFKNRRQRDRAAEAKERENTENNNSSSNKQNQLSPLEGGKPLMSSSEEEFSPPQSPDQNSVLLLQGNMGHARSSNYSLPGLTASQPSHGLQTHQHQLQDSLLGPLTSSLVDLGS
#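 Compounds are tested against tagged Six1 and Eya2 proteins bridged by glutathione donor and nickel acceptor beads; after a one-hour incubation at 37 °C without light, AlphaScreen emission is recorded.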
# CtBP-E1A inh: blocks the CtBP interaction with E1A; activity change, % (test concentration not listed); 0.49% of 340,000 active; AlphaScreen GST-E1A/His-CtBP binding, 1536-well; active compounds read low; control for the full effect not named in the record; in the data active means activity change below about -65%; inconclusive means about -30% to -65%; inactive means above about -30%; also: % is scaled to controls: 0 for no effect and ±100 for the full control effect
#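 Protein mix (5X: 125 nM each GST-E1A, His-CtBP) was incubated with pinned compound 2 h at 37 deg C in dark, in 50 mM Tris pH 8.0 buffer with 300 mM NaCl. Glutathione donor and nickel acceptor beads followed; AlphaScreen signal read after 1 h.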
# PINK1 modulator: PINK1 expression modulation. PINK1 immunofluorescence, high-content cytometry, 24 h. Potency, µM (titrated, usually from 76.6 µM), without a hit: top-dose activation (PINK1 increase), actives largely listed as activators. 0.2% of 410,000 active. AID 624263; active = well fitted activation curve with a large enough effect; inconclusive = small, poorly fitted or top-dose-only effect; inactive = flat fitted curve, though single readings scatter; cell line not stated here;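 also: potency is read from the fitted curve at half-maximal effect; % of control where 0% means no effect; nearly all actives have a fitted effect of over 65% in size; a mitochondrial uncoupler was the plate control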
#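 PINK1 protein, normally rapidly degraded, was detected by immunofluorescence after 24 hour compound treatment of a stable cell line. Titration data (5 concentrations) came from laser-scanning cytometry, with CCCP-treated wells as controls.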
# TRPML1 ag: agonists of human TRPML1 channel; Q9GZU1; TRPML1-expressing cells, Ca2+ dye fluorescence, FDSS; host cell line not named in the record; reference of the full effect not given here; activation, % (no concentration beside the values); 0.12% of 410,000 active; in the data active = activation above about 50%; inconclusive = about 30% to 50%; inactive = below about 30%; also: 0% is about no effect; the text of the record puts the active cut at 80%
#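 TRPML1-DL cells, Tet-induced overnight (~16 h, 37 degrees C), loaded 45-90 min at room temperature with Ca8 no-wash calcium dye plus quencher. FDSS fluorescence: 10 s baseline, compound pin-transfer, 110 s agonist read, then EC80 54-4 (4uM final) and 110 s antagonist read.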
# D2 potentiator: human D2 receptor positive allosteric modulation | DiscoveRx D2 beta-arrestin cells, luminescence, 90 min; 100% = 57 uM dopamine signal | potentiation, % (no concentration beside the values) | 0.23% of 360,000 active; active = potentiation of 50% or more; inconclusive = 30% to 50%; inactive = 30% or less;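 also: compound concentration not given in the record; tested on top of an EC20 dose of dopamine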
#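 PathHunter beta-arrestin assay in DiscoveRx D2 cells. Compounds were added with an EC20 of dopamine (50 nM final) for 90 min at 37 deg C. Luminescence was read 1 h after detection reagent, with 57 uM dopamine as the EC100 control.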
# * = called active by the depositor; ? = inconclusive; · = no result given; [ ] = another dose, or the depositor's remark.
SMILES,D2 ag,Six1-Eya2 inh,CtBP-E1A inh,PINK1 modulator,TRPML1 ag,D2 potentiator
CC1=C(C(=O)N2CCCCCC2)CC(CC(=O)NCCCN(C)C)C(=O)N1Cc1ccccc1 (stereo unspecified),-4.2,4.7,7.2,-0.6%,0.3,0.8
C/C(=N/NC(=O)CN1CCN(Cc2ccccc2)CC1)c1ccc([N+](=O)[O-])cc1,3.7,-7.2,-4.6,-0.9%,-0.4,-6.9
CCc1cccc(NC(=O)CCNS(=O)(=O)c2ccc3[nH]c(=O)oc3c2)c1,-3.4,1.3,2.1,0.0%,-0.5,-7.8
CCOC(=O)c1ccccc1NC(=O)Cn1cnc2c(cnn2-c2ccc(OC)cc2)c1=O,-1.5,2.1,5.2,?,0.4,3.7
CCCCn1c(N)c(N(CC)C(=O)c2ccc(Cl)c(Cl)c2)c(=O)[nH]c1=O,-1.9,-2.1,6.7,1.6%,0.0,-2.3
COC(=O)C1=C(C)N(CCc2ccccc2)C(=O)C1,-2.4,1.5,-4.2,-1.0%,-0.5,-2.5
COc1ccc(OC)c(NC(=O)N[C@@H](Cc2ccccc2)C(=O)O)c1,-0.2,4.1,2.6,?,1.3,-7.5
CCOC(=O)C1=CCN(S(=O)(=O)c2ccccc2F)C1c1cccc(C)c1 (stereo unspecified),-2.4,-2.5,3.6,1.2%,-0.7,1.1
CC1=C(c2ccccc2)C(=S)NC(C)(C)C1,0.3,3.1,2.7,-0.1%,0.1,-8.9
O=C(CCN1C(=O)C2CC=CCC2C1=O)N1CCN(c2ccccn2)CC1 (stereo unspecified),-4.2,-3.7,2.7,0.2%,-0.7,-32.0
O=C(Nc1cccc(Cl)c1)ON=C1c2ccccc2-c2ccccc21,-0.3,-0.3,15.3,5.1%[38.3 µM],-0.1,-21.0
CC(NC(=O)NC1CCCCC1)C(c1cccs1)N1CCN(C)CC1 (stereo unspecified),-0.6,2.1,5.9,-1.1%,0.2,-2.2
Brc1cccc(-c2nc3ccc(Br)cn3c2Cc2ccsc2)c1,-2.9,1.6,4.9,1.8%,0.1,-4.2
Cc1nn(CCC(=O)NNC(=S)Nc2ccc(Cl)cc2)c(C)c1[N+](=O)[O-],-5.5,-2.3,-1.9,4.2%[38.3 µM],-0.5,-26.8
Cc1ccc(NC(=S)N/N=C2\CCCCC2C)cc1 (stereo unspecified),-5.6,0.8,4.8,9.3%,-1.6,-7.2
COc1ccccc1NC(=S)NNC(=O)c1cc(C)nn1C,-3.0,1.8,-1.7,2.9%,-0.6,-15.9
COc1ccc(CCNC(=O)c2ccc(CNS(=O)(=O)c3cc(C)ccc3C)cc2)cc1OC,0.1,-8.1,-0.6,2.0%,1.5,5.4
N#CCCN1CCN(C(CNS(=O)(=O)c2ccc(Cl)cc2)c2ccccc2)CC1 (stereo unspecified),-0.3,3.6,-3.6,2.8%,-0.4,-13.4
O=C(COC(=O)CCc1nc2ccccc2s1)Nc1cccc(S(=O)(=O)N2CCOCC2)c1,-0.7,-1.4,-0.6,·,0.6,-0.9
COc1ccc(S(=O)(=O)NC(CC(=O)NCC2CCCO2)c2ccco2)cc1 (stereo unspecified),5.4,17.8,4.4,1.7%,0.7,-6.1
CCOc1ccc(Oc2ccc(Cl)cc2N)cc1,1.7,0.1,·,3.8%,5.0,-11.5
COCn1c(-c2ccc(OC)cc2)nc2ccccc21,-1.5,0.2,2.1,0.0%,-0.3,28.2
Cc1cc(C)n(C(=O)c2c([N+](=O)[O-])c(C)nn2C)n1,-2.4,3.3,0.0,5.5%[38.3 µM],0.0,-7.7
O=c1c(-c2ccc(O)cc2O)coc2cc(O)cc(O)c12,-2.3,-9.0,-4.6,1.1%,·,-25.6
CC1=C(C#N)C(c2ccccc2)C2=C(N1)c1ccccc1C2=O (stereo unspecified),-9.0,-17.1,-5.7,4.2%,-0.6,-36.9
CCOC(=O)CN1CC23C=CC(O2)C(C(=O)Nc2ccc(C(C)=O)cc2)C3C1=O (stereo unspecified),-1.2,0.9,3.6,0.2%,-0.1,-4.1
COC(=O)/C=C1\NCCNC1=O,-2.3,-13.0,4.4,-0.8%,0.0,-5.2
CCC1(C)Cc2ccccc2-c2nc(NCCCO)[nH]c(=O)c21 (stereo unspecified),-5.2,-0.5,-1.2,0.9%,·,-35.6
Cc1ccc(CNC(=O)CN2C(=O)NC(C)(c3ccc(Cl)cc3)C2=O)cc1 (stereo unspecified),-2.9,-3.2,-15.8,0.3%,-0.6,0.6
C[C@H]1CN([C@@H](C)CO)C(=O)Cc2cc(NC(=O)C3CC3)ccc2O[C@H]1CN(C)Cc1ccc(C(=O)O)cc1,-3.7,3.8,6.9,1.4%,-0.3,-14.9

# 4 consecutive compounds out of the list so far, quoted:
SMILES,D2 ag,Six1-Eya2 inh,CtBP-E1A inh,PINK1 modulator,TRPML1 ag,D2 potentiator
COc1ccc(S(=O)(=O)NC(CC(=O)NCC2CCCO2)c2ccco2)cc1 (stereo unspecified),5.4,17.8,4.4,1.7%,0.7,-6.1
CCOc1ccc(Oc2ccc(Cl)cc2N)cc1,1.7,0.1,·,3.8%,5.0,-11.5
COCn1c(-c2ccc(OC)cc2)nc2ccccc21,-1.5,0.2,2.1,0.0%,-0.3,28.2
Cc1cc(C)n(C(=O)c2c([N+](=O)[O-])c(C)nn2C)n1,-2.4,3.3,0.0,5.5%[38.3 µM],0.0,-7.7

# (list continues)
SMILES,D2 ag,Six1-Eya2 inh,CtBP-E1A inh,PINK1 modulator,TRPML1 ag,D2 potentiator
Cc1cc(N2O[C@]34C=C[C@]25C[C@@H](O)CC[C@]5(C)C3CC[C@]2(C)[C@@H]([C@H](C)/C=C/[C@H](C)C(C)C)CC[C@H]24)no1 (stereo partly specified),-2.5,-2.0,-0.6,-0.2%,-0.6,-0.1
Cc1ccc(C(=O)NNC(=O)C2CCN(Cc3ccc(Cl)c(Cl)c3)CC2)cc1,-4.3,8.4,12.5,16.1%,-0.5,6.1
CC(C)OC(=O)CC12CN(C)CC(CC(=O)OC(C)C)(CN(C)C1)C2=O,-1.1,16.2,-3.2,0.0%,0.9,-10.8
COc1ccc(-n2nc3c(c2NC(=O)C2CCCC2)CS(=O)C3)cc1 (stereo unspecified),-4.3,1.2,9.7,0.8%,-0.6,-8.1
Cc1c(NC(=O)CSc2nnc3sc4ccccc4n23)c(=O)n(-c2ccccc2)n1C,-2.6,-1.6,-0.4,1.5%[38.3 µM],0.4,-6.6
CC1=C(C(=O)N2CCOCC2)CC(CC(=O)NC2CCCC2)C(=O)N1Cc1ccc(C(C)(C)C)cc1 (stereo unspecified),-7.0,6.1,0.7,1.6%,-0.1,1.7
CCN(C(=O)CN1CCCC(C)C1)c1c(N)n(Cc2ccccc2)c(=O)[nH]c1=O (stereo unspecified),-3.2,4.1,2.1,0.4%,1.8,-10.1
COc1ccc(C2C(C(=O)c3ccc(C)o3)=C(O)C(=O)N2Cc2cccnc2)cc1 (stereo unspecified),-4.2,8.6,-6.1,3.0%,-1.4,-7.7
CCn1c(SCC(=O)Nc2ccc(OC)c(OC)c2)nnc1-c1c[nH]c2ccccc12,4.8,2.9,-4.3,-0.3%,0.2,-5.2
CCc1ccc(NC(=O)C[n+]2cc(-c3ccc(C)cc3)n3c2CCC3)cc1,-3.0,-4.6,-6.6,2.3%,5.3,-15.4
COc1ccc(C(=O)Nc2c(N)nc[nH]c2=O)cc1,-5.2,-6.3,-0.7,1.3%,-0.8,-6.5
O=C(CNC(=O)c1ccccc1Cl)Nc1ccncc1,-3.8,7.2,-1.4,-1.4%,0.8,-5.8
O=C(COc1ccc(-c2ccccc2)cc1)NN=C1CCCC1,-1.7,0.9,-0.4,-1.1%,0.2,1.7
O=C(CC(C(=O)N1CCc2ccccc21)n1ccnc1)NCC1CCCO1 (stereo unspecified),-3.0,-1.5,1.6,1.6%[38.3 µM],0.8,-6.4
CC(Oc1ccc(Cl)cc1Cl)C(=O)NCCCN1CCOCC1 (stereo unspecified),-1.6,-0.6,4.7,3.1%,-0.6,-5.8
CCOC(=O)CSc1nc(N)c2c3c(sc2n1)CCCC3,-2.2,-1.2,-1.3,0.9%,-0.2,-7.2
Cn1c(O)c(N=NC(=O)CNC(=O)c2ccco2)c2ccccc21,-6.4,3.2,·,0.5%,1.1,-5.0
Cc1nc2ccc([N+](=O)[O-])cc2[nH]1,4.0,-0.4,2.5,1.9%,-0.7,-4.7
COc1cc(/C=N/NC(=O)c2ccc3ccccc3c2)ccc1Oc1ccc([N+](=O)[O-])cn1,9.9,-28.4,-21.4,1.7%,1.0,7.5
O=C1CC(C(=O)Nc2cccc(F)c2)n2ncnc2N1 (stereo unspecified),2.4,7.6,0.5,2.2%,1.2,-1.5
O=C(Nc1cccc(S(=O)(=O)N2CCCCC2)c1)c1ccc(OCC2CCCO2)cc1 (stereo unspecified),-2.9,-4.9,4.5,-0.2%,0.1,-1.9
Cc1cc(C)cc(NC(=O)C(OC(=O)c2ccc([N+](=O)[O-])o2)c2ccccc2)c1 (stereo unspecified),11.5,-5.6,-6.0,0.7%,2.0,23.9
CCOC(=O)c1ccc(NC(=O)c2nc[nH]c2C(=O)N[C@H](C)CO)cc1,3.1,-2.9,-0.3,-0.7%,·,·
OC(COCCC12CC3CC(CC(C3)C1)C2)CN1CCCCC1 (stereo unspecified),-0.4,-2.3,11.1,-4.7%[38.3 µM],0.0,-24.8
CCCOc1cccc(C2/C(=C(\O)c3ccc4c(c3)OCCO4)C(=O)C(=O)N2CCCn2ccnc2)c1 (stereo unspecified),-2.8,3.1,12.0,0.1%,-0.4,0.0
Cc1nnc(N/N=C/c2c[nH]c3ccccc23)[nH]c1=O,2.7,-0.7,?,1.1%,0.7,3.2
O=C(N/N=C/c1ccc(OCc2cnc(Cl)s2)cc1)c1ccncc1,0.5,2.1,·,1.5%,1.7,1.2
CCOP(=O)(NC12CC3CC(CC(C3)C1)C2)NC12CC3CC(CC(C3)C1)C2,7.8,0.0,4.7,5.4%,0.0,-0.1
O=C1Nc2ccccc2/C1=C/c1cnc(-c2ccccc2)[nH]1,-0.2,-21.0,-7.4,44.7µM*,5.1,-10.1
COc1ccc(N2C(=O)C3CCCN3C2c2ccc(Cl)cc2)cc1 (stereo unspecified),-1.2,1.2,5.7,1.2%,1.6,-0.4
O=C(Nc1ccccc1C(=O)Nc1ccccc1)c1ccco1,0.4,0.2,0.6,7.3%,2.5,-2.6
CCCCC/C=N\NC(=O)Cc1ccc([N+](=O)[O-])cc1,-2.2,6.0,3.0,-1.4%,-0.2,-13.6
CCOC(=O)c1ccc(N2C(=O)CC(Sc3nnc(C)s3)C2=O)cc1 (stereo unspecified),1.1,-1.2,-1.6,0.2%,-0.2,2.6
CCn1c(SCC(=O)c2cccs2)nnc1-c1cccs1,-3.4,30.3,0.0,1.9%[38.3 µM],-0.2,-6.9
Cc1ccc(-c2cc(-c3c(C)nn(C)c(=O)c3N)[nH]n2)cc1,-3.0,-1.1,-1.6,-0.8%,1.2,-12.4
CCc1ccccc1NC(=O)c1cc(S(=O)(=O)N2CCCC2)c[nH]1,-2.3,-6.9,4.5,1.6%,-0.8,-7.3
COc1ccccc1CCC(=O)N1CCC(n2nccc2NC(=O)C2CCOC2)CC1 (stereo unspecified),-3.0,3.8,-24.9,-2.3%,0.7,-4.2
